# Insulin prom inh: inhibitors of insulin promoter-driven GFP, primary screen, imaging, TRM-6 cells (human fetal islet line), eGFP reporter, cell count. reporter expression induced with tamoxifen. inhibition, % at 2 µM. hit rate 0.9% among 130,000. AID 1273, 2008;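 active = inhibition above the mean plus 3 SD, with well images judged a real hit on visual review, cut at about 60% in these data, passing the limit was not always enough; inconclusive = inhibition over the cutoff but images rejected on review; inactive = inhibition not above the cutoff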
# GALR2 ag: GALR2 receptor agonists, primary screen, cell-based; Galanin receptor type 2 (Homo sapiens), O43603; GALR2-expressing cells, agonist activation read-out; activation, %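 (tested at 5 µM)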; hit rate 0.48% among 140,000; AID 803, 2007;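 active = above mean plus 3 SD of all compounds, about 5% in these data, not always enough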;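 note: 0% = vehicle buffer wells and 100% = reference agonist at full effect; tested in CHO reporter cells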
# Target sequence (O43603 whole entry, looked up): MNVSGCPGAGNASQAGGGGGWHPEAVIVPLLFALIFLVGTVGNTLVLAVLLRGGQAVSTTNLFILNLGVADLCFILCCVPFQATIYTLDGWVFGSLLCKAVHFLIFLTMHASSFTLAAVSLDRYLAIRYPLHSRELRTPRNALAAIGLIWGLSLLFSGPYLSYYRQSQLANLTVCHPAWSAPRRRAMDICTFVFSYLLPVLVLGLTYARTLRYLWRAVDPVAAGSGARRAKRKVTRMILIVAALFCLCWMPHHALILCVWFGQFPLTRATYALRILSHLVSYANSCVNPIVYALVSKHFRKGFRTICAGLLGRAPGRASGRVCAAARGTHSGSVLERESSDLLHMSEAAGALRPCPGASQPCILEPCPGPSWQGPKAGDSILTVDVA
# PKD1 kinase inh: inhibitors of human PKD1 kinase, biochemical, fluorescence polarization | Serine/threonine-protein kinase D1 (Homo sapiens), Q15139 | PKD1 kinase fluorescence polarization assay | inhibition, %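 (about 10 µM by stock and volumes)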 | hit rate 0.056% among 200,000 | AID 797, 2007;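 active = inhibition of 50% or more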;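 note: controls were vehicle for no effect and a reference inhibitor for full effect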
# HSV replic up: enhancers of HSV replication in host cells, fold increase, host cell viability | HSV replication augmentation in cells | maximum fold increase | hit rate 0.005% among 220,000 | AID 1956, 2009;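 active = peak rise of 1.5-fold or more in the series; inconclusive = self-fluorescent or not available for retest; tested in PC3 cells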;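 note: first round at 10 µM; read as green reporter fluorescence; hits show the peak of a series up to 25 µM; 1 = signal of infected wells without compound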
# RGS16-Gao: modulators of RGS16 binding to Galphao, primary screen, biochemical, human proteins, multiplexed bead flow cytometry; Regulator of G-protein signaling 16 (Homo sapiens) + Guanine nucleotide-binding protein …; hit rate 0.38% among 220,000; binding response (% of control), % at 10 µM; bead-based flow cytometry RGS16-Galphao binding, fluorescence; actives lie on both sides;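 active = below 25% or above 175%, edge rows of some plates excepted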;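 note: Galphao activated by GDP with aluminum fluoride before binding; 100% = wells without compound and 0% = beads without RGS; some results beyond the cut were filed as inactive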
# Target sequence (O15492 whole entry, looked up): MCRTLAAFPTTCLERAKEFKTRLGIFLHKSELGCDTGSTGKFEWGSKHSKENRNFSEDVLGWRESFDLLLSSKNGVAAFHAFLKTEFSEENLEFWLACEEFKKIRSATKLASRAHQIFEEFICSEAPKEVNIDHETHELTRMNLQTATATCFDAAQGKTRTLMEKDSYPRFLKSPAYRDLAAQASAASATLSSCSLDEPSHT
# Target sequence (P09471 whole entry, looked up): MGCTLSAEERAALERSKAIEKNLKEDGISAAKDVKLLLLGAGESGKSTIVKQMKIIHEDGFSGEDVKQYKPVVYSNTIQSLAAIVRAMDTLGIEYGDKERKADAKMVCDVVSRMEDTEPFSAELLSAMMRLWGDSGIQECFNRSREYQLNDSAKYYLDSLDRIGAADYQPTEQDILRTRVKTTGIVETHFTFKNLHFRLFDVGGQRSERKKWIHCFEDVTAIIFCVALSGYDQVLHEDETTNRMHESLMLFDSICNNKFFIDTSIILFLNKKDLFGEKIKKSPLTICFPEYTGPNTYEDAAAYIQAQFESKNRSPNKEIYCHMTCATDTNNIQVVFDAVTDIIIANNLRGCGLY
# Insulin prom inh cell count: second read-out of Insulin prom inh, no call of its own (marks repeat the call); normalized cell count, %; measured here: cell count, toxicity; reference of the scale not given here;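 cells exposed to compound for 48 h; stained nuclei by imaging scaled within each plate; lower means fewer cells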
# HSV replic up primary fold: second read-out of HSV replic up, no call of its own (marks repeat the call); fold increase; compound at 10 µM; measured here: primary screen fold increase 10 uM; tested in PC3 cells;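 GFP signal in the first replicate; 1 = infected wells without compound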
# * hit, by the source's call; i = inactive; ? = inconclusive; . = not tested or not shown; & = joins results of further samples.
compound	PKD1 kinase inh	HSV replic up primary fold	RGS16-Gao	Insulin prom inh	Insulin prom inh cell count	HSV replic up	GALR2 ag
COc1ccc(C2/C=C\CN(CC(C)C)CC(=O)N2Cc2ccc(F)cc2)cc1 (centres undefined)	.	0.935	102.0	.	.	i	.
Cc1nnc(Sc2cc(C(=O)NC3CC3)c3ccccc3n2)s1	.	1.01	99.5	.	.	i	.
CCOC(=O)N1CCN(S(=O)(=O)c2ccc(C(=O)Nc3nnc(C4CC4)o3)cc2)CC1	-4.6	0.97	87.0	.	.	i	-0.4
Cc1n[nH]c(=S)n1/N=C/c1cccc(OCc2ccccc2)c1	-1.6	0.96	86.7	.	.	i	.
CC12CN3CCN(CC(C3)C1(O)CN1CCCCC1)C2 (centres undefined)	-9.6	0.94	94.1	28.9	102.8	i	-1.6
O=C(Nc1cccc2ccccc12)c1cnccn1	-6.0	0.88	46.8	.	.	i	0.5
Cc1cc(NC(=O)CSc2nnc(C3COc4ccccc4O3)n2N)no1 (centres undefined)	.	0.91	95.8	.	.	i	.
COc1cccc2c1OCC/C2=N\NC(=O)C(C)Oc1ccc([N+](=O)[O-])cc1 (centres undefined)	-7.2	1.01	105.2	.	.	i	.
CCOC(=O)C1(C)/C(=N/Nc2ccccc2)C(=O)C(=O)N1c1ccccc1 (centres undefined)	-6.4	1.07	105.6	13.9	144.3	i	-0.3
CC(=O)Nc1ccc(-c2csc(Nc3cc(C)ccn3)n2)cc1	-5.0	0.97	97.6	5.6	136.2	i	.
CCCCn1c(SCC(=O)Nc2ccc(OC)cc2)nc2ccc(N3CCOCC3)cc2c1=O	-4.7	0.83	101.5	4.5	97.7	i	-1.2
CC(C)Nc1cc(C(F)(F)F)nc(-c2ccccn2)n1	-4.8	0.68	159.8	25.0	72.0	i	-1.9

# 3 of the entries above in order of their number in RGS16-Gao, lowest first:
smiles,PKD1 kinase inh,HSV replic up primary fold,RGS16-Gao,GALR2 ag
CC12CN3CCN(CC(C3)C1(O)CN1CCCCC1)C2 (centres undefined),-9.6,0.94,94.1,-1.6
Cc1nnc(Sc2cc(C(=O)NC3CC3)c3ccccc3n2)s1,.,1.01,99.5,.
COc1ccc(C2/C=C\CN(CC(C)C)CC(=O)N2Cc2ccc(F)cc2)cc1 (centres undefined),.,0.935,102.0,.

# A different layout for some results above:
Cc1cc(NC(=O)CSc2nnc(C3COc4ccccc4O3)n2N)no1 (centres undefined)
  PKD1 kinase inh: .
  HSV replic up primary fold: 0.91
  RGS16-Gao: 95.8
  Insulin prom inh: .
  Insulin prom inh cell count: .
  HSV replic up: i
  GALR2 ag: .
COc1cccc2c1OCC/C2=N\NC(=O)C(C)Oc1ccc([N+](=O)[O-])cc1 (centres undefined)
  PKD1 kinase inh: -7.2
  HSV replic up primary fold: 1.01
  RGS16-Gao: 105.2
  Insulin prom inh: .
  Insulin prom inh cell count: .
  HSV replic up: i
  GALR2 ag: .

# (further entries)
compound	PKD1 kinase inh	HSV replic up primary fold	RGS16-Gao	Insulin prom inh	Insulin prom inh cell count	HSV replic up	GALR2 ag
C=C(C)C1CCC(C)=C1COC(=O)Nc1ccccc1 (centres undefined)	0.8	0.897	103.6	0.0	75.1	i	0.7
CCOC(=O)c1cn2ccc(C)cc2n1	1.0	0.96	109.2	.	.	i	.
O=C(NNC(=S)NC(=O)c1cccnc1)c1ccccc1	3.9	0.87	99.8	29.2	81.7	i	-1.8
Cn1cc(C(=O)N/N=C/c2ccc(Br)c([N+](=O)[O-])c2)c2ccccc21	.	0.72	98.0	.	.	i	.
CCc1ccc(OCC(=O)c2c(O)c3ccccc3oc2=O)cc1	4.2	0.95	99.3	23.1	128.5	i	.
CC(=O)N1CN(Cc2ccccn2)Cc2c1sc1c2CCCC1	-11.6	0.99	97.1	.	.	i	-1.5
O=[N+]([O-])c1ccccc1OCc1nc(-c2cccs2)no1	-3.4	0.98	111.1	-8.3	92.8	i	.
Cc1ccc(S(=O)(=O)N(CCC#N)C2CCCCC2)c2nsnc12	-8.3	0.99	43.0	-172.2	108.7	i	-4.0
CNC(=S)N1CCN(C(=O)c2ccco2)CC1	-7.5	0.98	121.5	24.3	83.4	i	-0.9
CN=C1c2c(-c3ccccc3)c3cc(OC)ccc3n2CCN1C	-10.4	0.91	127.3	10.3	45.9	i	-2.6
COc1cccc(NC(=O)c2ccc(Cn3cc([N+](=O)[O-])cn3)o2)c1	-10.4	0.92	20.1	.	.	i	-0.1
C/C(Cl)=C\Cn1c(O)c(N=O)c2ccccc21	-0.5	1	110.8	.	.	i	.
Fc1ccc(-c2nc3ccccn3c2NCc2ccc3c(c2)OCO3)cc1	-3.5	0.9	116.2	-45.5	156.6	i	.
O=C(NCc1ccco1)C(=O)NCC1OCCCN1S(=O)(=O)c1ccccc1 (centres undefined)	-6.1	0.99	108.8	0.0	182.2	i	-0.7
CN(C)S(=O)(=O)c1ccc2nc(NC(=O)c3cccs3)sc2c1	-9.4	0.67	104.0	33.3	79.2	i	0.0
COc1ccc2nc(NC(=O)c3cccc(S(=O)(=O)N4CCOCC4)c3)sc2c1	5.0	0.91	134.5	74.3*	89.3*	i	-1.7
CSc1ccc(OC2CCCCC2NS(=O)(=O)c2ccccc2)cc1 (centres undefined)	4.3	0.92	99.2	-16.7	154.8	i	-2.0
Cc1c(O)nc2sc3ccccc3n2c1=O	.	1.06	104.5	.	.	i	.
O=C1/C(=C/c2ccco2)SC(=S)N1C1CCS(=O)(=O)C1 (centres undefined)	-8.0	0.94	101.0	-50.0	97.1	i	.
CCn1c(CNC(=O)Cc2ccc(OC)cc2)n[nH]c1=S	-8.1	.	104.4	15.4	132.2	.	.
CN(Cc1nc(-c2cnccn2)no1)CC1(c2ccccc2)CC1(C)C (centres undefined)	1.4	1.11	105.6	.	.	i	.
COCCN(C(=O)CNC(=O)c1ccco1)C(C(=O)NC1CCCCC1)c1cccs1 (centres undefined)	9.1	1.1	74.8	46.1	112.1	i	-1.5
CCOC(=O)CSc1nnc(-c2cccnc2)o1	-9.8	0.94	104.6	.	.	i	-2.3
COc1ccccc1C(=O)NCC(=O)OCC(=O)Nc1cccc(S(=O)(=O)N(C)C)c1	-2.6	1.03	94.3	21.1	109.5	i	.
COc1cc(-c2nnc(COc3ccc(Cl)cc3C)o2)cc(OC)c1OC	-3.1	.	97.2	-21.4	129.9	?	-0.5
CCCCc1nc2n[nH]c(N)c2c2c1CCCC2	5.7	1.01	116.8	25.0	116.3	i	0.3
N#C/C(=C\C=C\c1ccccc1)C(=O)Nc1ccccc1	-7.7	.	111.0	46.1	113.2	.	-1.5
COc1ccc(NC(=O)CSc2nnc(-c3ccc(C)cc3)n2N)cc1	-7.0	0.95	97.2	3.2	85.5	i	-1.7
C[C@H](NC(=O)c1nc[nH]c1C(=O)NC(c1ccccc1)c1ccccc1)C(=O)OC(C)(C)C	-3.2	0.8	101.2	.	.	i	.
Brc1ccc2oc3c(N4CCOCC4)ncnc3c2c1	13.4	0.89	101.4	-167.7	74.2	i	-1.9
O=C1CC(c2cccc(Oc3ccccc3)c2)NC(=O)N1 (centres undefined)	0.3	0.87	89.2	-108.3	89.2	i	-2.1
Cc1ccc(NC(=O)c2cccc(C(=O)OC(C)C)n2)c(Br)c1	5.2	1.06	99.9	-14.3	126.7	i	.
CC(=O)N1CCc2cc(Br)cc(S(=O)(=O)N3CCCCCC3)c21	-11.0	0.963	99.6	57.1	113.7	i	1.0
Cc1ccc(-c2nn3c(C)nnc3s2)cc1NC(=O)c1ccc(OC(C)C)cc1	-14.1	0.76	103.8	.	.	i	-0.3
COC(=O)c1nnn(Cc2ccccc2)c1N	-0.4	0.95	105.0	30.8	85.8	i	-1.7
COc1ccc(CCNC(=O)CSc2nc(-c3ccco3)cc(C(F)(F)F)n2)cc1	-1.4	0.97	102.6	30.8	95.4	i	-1.3
COc1ccc(CN2C(=O)N(c3ccccc3)C(=O)C2CC(=O)Nc2ccccc2)cc1OC (centres undefined)	5.1	0.99	58.4	-58.3	50.5	i	.
CCCCN(NC(C)=O)c1nc(Cl)nc(NC(C)C)n1	-4.3	0.9	101.6	.	.	i	-2.0
CCN(CC)C(=O)CC1(c2ccccc2OC)CCOC(C(C)C)C1 (centres undefined)	-1.7	0.98	111.2	-52.8	121.5	i	-0.1
Cc1cc(C)cc(NS(=O)(=O)c2ccc3oc(=O)ccc3c2)c1	-0.9	0.89	108.1	0.0	138.3	i	-1.2
COc1ccc(OC)c(N=Cc2c(O)[nH]c3ccccc23)c1	6.3	0.95	96.5	-45.5	120.3	i	2.0
CCOC(=O)c1cccc(NC(=O)c2cccs2)c1	-2.4	0.94	105.8	-30.3	109.7	i	-1.3
Cc1sc(=NC(=O)c2ccco2)n(C)c1-c1ccccc1	-11.8	0.94	102.9	12.0	128.0	i	-1.1
Cc1onc(-c2ccccc2Cl)c1C(=O)OCC(=O)Nc1ccc2c(c1)OCO2	-0.4	1.06	103.0	46.4	94.9	i	-1.1
CCOC(=O)C1CCc2nc3ccccc3c(=O)n21 (centres undefined)	-3.1	0.99	99.2	-35.5	97.4	i	-2.6
O=C(COC(=O)c1ccc2c(c1)OCCO2)Nc1cccc(S(=O)(=O)N2CCOCC2)c1	3.4	1.01	101.2	22.2	84.1	i	.
COc1ccccc1N1CCN(CC(O)COCc2cccs2)CC1 (centres undefined)	-1.5	0.8	99.3	-68.8	79.3	i	.
COc1ccc(NC(=O)C(NC(=O)c2ccc(=O)[nH]c2)c2ccc(OC)cc2)cc1 (centres undefined)	-5.1	1.02	70.5	60.0	86.8	i	-1.9
NS(=O)(=O)c1ccc(CNC(=O)c2cc(-c3ccccc3)nc3ccccc23)cc1	.	0.91	103.3	.	.	i	.
c1ccc(-n2nnc3ccccc32)nc1	-1.2	0.87	102.1	.	.	i	-1.4
NC(=O)c1ccc(NC(=O)COC(=O)CCSc2ccccc2)cc1	.	1.16	98.8	.	.	i	.
Cc1ccc(C(C)C)c(OCc2n[nH]c(=S)o2)c1	-1.7	1.02	102.0	-64.3	147.7	i	.
CCCc1c(C)c2c(C)[nH]nc2oc1=O	-0.6	0.993	83.8	37.2	120.8	i	-1.7
Cc1ccc(C)c(N2CCN(C(=O)C3CCCN(S(=O)(=O)c4c(C)noc4C)C3)CC2)c1 (centres undefined)	0.1	0.88	104.2	-57.1	113.4	i	-1.7
CN1CCN(Cc2nc3c(c(=O)n(C)c(=O)n3C)n2CCCc2ccccc2)CC1	-2.5	0.68	107.0	.	.	i	-0.1
CC1CCN(CCCn2c(=S)[nH]c3c(sc4ccccc43)c2=O)CC1	-1.9	0.88	94.8	.	.	i	.
O=C(COC(=O)c1cc(=O)[nH]c2ccccc12)Nc1nccs1	.	0.96	95.6	.	.	i	.
O=C(Nc1cccc(Cl)c1)O/N=C\c1ccncc1	-4.6	0.84	72.0	27.3	94.2	i	-1.0
CS(=O)(=O)c1ccc2nc(NC(=O)C3CCCO3)sc2c1 (centres undefined)	1.4	1	99.5	33.3	68.3	i	.
O=C1C2CC=C(Cl)CC2C(=O)N1CCN1CCOCC1 (centres undefined)	4.2	0.93	109.1	-11.1	91.3	i	0.1

# The list continues:
compound	PKD1 kinase inh	HSV replic up primary fold	RGS16-Gao	Insulin prom inh	Insulin prom inh cell count	HSV replic up	GALR2 ag
c1ccc(-c2nc3cnccn3c2Nc2ccc3c(c2)OCCO3)cc1	1.4	0.8	103.5	24.3	81.7	i	-0.2
Cc1cc(=O)[nH]c(SCCCOc2ccc(F)cc2)n1	-1.5	1.04	101.9	33.3	99.3	i	-1.6
COc1ccccc1OCC(=O)O	-10.2&0.6	0.92&0.75	109.7&105.0	43.8	94.9	i	-1.1&-3.1
CCc1nc(SCC(=O)Nc2ccc(C(=O)O)cc2)n[nH]1	4.1	0.91	97.7	.	.	i	-2.6
O=C(O)c1cccc(-n2cccc2/C=C2/NC(=O)N(c3ccc(Cl)cc3)C2=O)c1	-8.2	1	98.5	-9.1	125.1	i	.
Fc1ccc(-c2n[nH]c(=S)n2-c2ccc3c(c2)OCCO3)cc1	-1.9	1	105.0	60.0	124.6	i	.
O=C1C2C3C=CC(C3)C2C(=O)N1Nc1c(Cl)cc(Cl)cc1Cl (centres undefined)	-9.0	1.17	112.7	-40.0	94.7	i	.
CCOP(=O)(c1ccccc1)C(O)c1ccc(F)cc1 (centres undefined)	-10.5	1.01	101.1	-23.3	108.1	i	-1.0
